NPR1 antag: Natriuretic polypeptide receptor (hNpr1) antagonism - Primary qHTS. HEK293 hNpr1 GloSensor cGMP, ANP-stimulated luminescence. Potency, µM (highest dose often 46.3 µM), inactives show at the top dose activity change, negative = inhibition, actives largely listed as inhibitors. 1.6% of 76,000 active; active = well fitted inhibition curve with a large enough effect; inconclusive = small, poorly fitted or top-dose-only effect; inactive = no such curve, though single readings can be large or run the other way;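 note: nearly all actives have a fitted effect of over 60% in size; nearly all hits also lower the signal before the agonist is added; a reference antagonist and vehicle were the controls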
Target sequence (P16066 whole entry, looked up): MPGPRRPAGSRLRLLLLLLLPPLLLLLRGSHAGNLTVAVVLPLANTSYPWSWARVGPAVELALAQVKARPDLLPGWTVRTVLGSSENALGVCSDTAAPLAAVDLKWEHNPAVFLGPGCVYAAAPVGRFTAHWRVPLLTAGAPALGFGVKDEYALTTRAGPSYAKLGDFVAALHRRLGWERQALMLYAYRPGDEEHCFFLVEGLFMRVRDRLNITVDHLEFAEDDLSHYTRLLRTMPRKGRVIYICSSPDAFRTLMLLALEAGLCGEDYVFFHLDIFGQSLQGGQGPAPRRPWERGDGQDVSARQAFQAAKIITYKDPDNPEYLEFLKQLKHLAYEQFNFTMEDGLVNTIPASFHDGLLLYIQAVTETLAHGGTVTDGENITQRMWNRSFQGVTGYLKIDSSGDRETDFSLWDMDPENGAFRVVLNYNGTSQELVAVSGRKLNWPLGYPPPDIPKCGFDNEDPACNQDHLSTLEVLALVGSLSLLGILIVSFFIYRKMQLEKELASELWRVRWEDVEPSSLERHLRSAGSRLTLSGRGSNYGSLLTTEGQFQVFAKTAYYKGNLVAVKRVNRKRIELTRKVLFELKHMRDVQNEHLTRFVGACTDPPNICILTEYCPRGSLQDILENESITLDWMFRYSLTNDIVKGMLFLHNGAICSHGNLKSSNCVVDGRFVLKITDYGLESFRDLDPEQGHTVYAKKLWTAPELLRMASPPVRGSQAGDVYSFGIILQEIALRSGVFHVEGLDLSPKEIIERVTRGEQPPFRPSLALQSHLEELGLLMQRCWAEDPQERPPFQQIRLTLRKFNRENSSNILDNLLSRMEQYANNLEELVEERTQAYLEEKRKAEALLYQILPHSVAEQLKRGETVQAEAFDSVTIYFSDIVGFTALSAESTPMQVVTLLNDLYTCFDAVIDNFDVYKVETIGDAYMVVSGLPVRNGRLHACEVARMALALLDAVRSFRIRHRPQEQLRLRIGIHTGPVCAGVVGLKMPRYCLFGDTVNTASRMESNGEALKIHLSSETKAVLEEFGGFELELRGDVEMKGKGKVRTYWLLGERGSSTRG
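Compound pre-incubated 30 min at room temperature on GloSensor-loaded HEK293 cells stably carrying hNpr1 and the pGS-40F cGMP biosensor. Stimulation uses hNppA at 0.1 nM final; luminescence is taken at baseline and 20 min post-agonist.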
* hit, by the source's call; & = joins results of further samples; [ ] = remark or other dose. % is set by controls: 0 for no effect and ±100 for the full control effect; potency is the fitted concentration of half-maximal effect. Only part of the results is shown. The share of hits here may be higher or lower than overall.

Screening CN1c2cc(C(=O)NCc3ccc(F)c(Cl)c3)ccc2C(=O)N2CCCCC21 (stereo unspecified) returned NPR1 antag -2%.
Screening O=C1NCCCCCN(C(=O)c2cccs2)[C@H]2CCC[C@@H]12 returned NPR1 antag 8%.
Screening C[C@@H](NC(=O)c1cccn1C)c1onc(-c2cccnc2)c1C(=O)O returned NPR1 antag 2%[70.6 µM].
Screening Cc1cnn(CCC(=O)N[C@@H]2COCC[C@H]2OCc2ccccn2)c1 returned NPR1 antag 0%.
Screening Cc1cccc(CN2CCCC3(CCN(C(=O)Cc4cccnc4)C3)C2=O)c1 (stereo unspecified) returned NPR1 antag 6%.
Screening O=C(NCCCc1ccccc1)c1ccc(N2CC3CC(C2)[C@H]2CCCC(=O)N2C3)nc1 (stereo partly specified) returned NPR1 antag -1%.
Screening O=C(NCC1Cn2cccc2CN1Cc1ccccc1)c1ccco1 (stereo unspecified) returned NPR1 antag 0%.
For CN1C(=O)C(CC(=O)NCc2cccnc2)Sc2ncccc21 (stereo unspecified) the results were NPR1 antag -6%.
For Cc1nn(-c2ccccn2)c(C)c1[C@@H]1C=C[C@@H](NC(=O)c2cccs2)C1 the results were NPR1 antag -2%[70.6 µM].
COC(=O)[C@@H]1Cc2ncn(C)c2CN1C(=O)c1ccc(OC)cc1 was read as NPR1 antag 3%[70.6 µM].
`O=C1N2CCCC2CN1C1CCN(Cc2ccccc2C(F)(F)F)CC1` (stereo unspecified) gave NPR1 antag -1%.
Screening Cn1ncc(N2CCC(NC(=O)CCC3CCCCC3)CC2)cc1=O returned NPR1 antag 2%.
`Cc1cccc2c1nc1n2[C@@H](CNCc2ccccc2)COC1` gave NPR1 antag 20µM*.
For CCN1CCCN(C(=O)CCC2CCCC2)CC12CCOCC2 the results were NPR1 antag 0%.
CC#CCn1cc2c3c(cccc31)[C@H](CC(C)C)N[C@H](C(=O)NCCNC(C)=O)C2 was read as NPR1 antag -2%[70.6 µM].
Cn1cccc1C(=O)N1CC[C@H](NC(=O)NC2CCCCC2)[C@H]1C(=O)N1CCC[C@@H]1C(N)=O was read as NPR1 antag 3%.
Screening O=C(NCc1ccccc1)c1ccc2c(c1)OCCN(CCC(F)(F)F)C2 returned NPR1 antag -2%[70.6 µM].
For N#Cc1ccc(N2CCCn3nc(CCC(=O)N4CCCC4)cc3C2)nc1 the results were NPR1 antag 12%.
CNC(=O)[C@@H]1CN(C(=O)c2ccc(C)c(F)c2)C[C@H]1COC was read as NPR1 antag 3%.
Cc1csc(SCC(=O)N[C@H]2[C@H]3CCO[C@H]3[C@@H]2NS(C)(=O)=O)n1 was read as NPR1 antag 2%.
Cc1ccc(NC(=O)C2CCN(C(=O)c3ncn4c3COC(c3ccc(F)cc3)C4)CC2)cc1Cl (stereo unspecified) was read as NPR1 antag -12%.
Screening CCc1nc2c(c(-c3ccc(Cl)cc3)n1)CCN(Cc1ccnn1C)CC2 returned NPR1 antag -3%.
Screening Cc1c(CC(=O)NCc2ccon2)c2c(n1Cc1ccccc1F)CCCC2=O returned NPR1 antag -7%.
`CC(C(=O)NCc1ccc(N2CCOCC2)cc1)C1CCOCC1` (stereo unspecified) gave NPR1 antag 5%.
`COc1ccc(-n2nc(C3CCCN(C(=O)C4CC4)C3)[nH]c2=O)cc1` (stereo unspecified) gave NPR1 antag -16%[70.6 µM].
`Cc1ccc(NC(=O)CCC[C@H]2NC[C@@H]3C[C@H]2CN(Cc2ccccc2)C3)cc1` gave NPR1 antag -3%.
Cc1cc2nc3n(c(=O)c2n1CC(=O)Nc1ccc(F)cc1F)CCCCC3 was read as NPR1 antag 4%.
COc1ccc(N2CCOC3CCN(Cc4ccc(C(C)C)cc4)CC3C2=O)cc1 (stereo unspecified) was read as NPR1 antag inconclusive.
Screening COC(=O)c1cccc(NC(=S)N[C@H]2CO[C@H]3[C@@H]2OC[C@H]3OC(=O)Nc2cccc3ccccc23)c1 returned NPR1 antag inconclusive.
CN(Cc1ccccc1)C(=O)[C@H]1O[C@H](CCN2CCN(c3ccccc3)CC2)CC[C@@H]1O was read as NPR1 antag -4%.
Screening O=C(c1ccc(F)cc1)N1CCC(N2CCCCCC2=O)CC1 returned NPR1 antag 3%&-2%[70.6 µM].
`COc1ccc(S(=O)(=O)N2C[C@@H](F)C[C@H]2C(=O)N2CCCCC2)cc1` gave NPR1 antag 1%.
`COc1ccc(OC)c(-c2cnc3[nH]cc(CC(N)=O)c3c2)c1` gave NPR1 antag inconclusive.
O=C(CCn1ccn2nc3c(c2c1=O)CCCC3)Nc1cccc(Cl)c1F was read as NPR1 antag -4%.
N#Cc1cccc(C(=O)NC2CCc3n[nH]c(=O)n3CC2)c1 (stereo unspecified) was read as NPR1 antag 3%.
For Cc1ccccc1N1CCN(C2CCCN(Cc3ccc(C#CC(C)(C)O)cc3)C2)CC1 (stereo unspecified) the results were NPR1 antag -3%.
Screening CN(Cc1n[nH]c2c1CCCC2)C(=O)c1ccc(CCC(C)(C)O)cc1 returned NPR1 antag -5%.
For CCCCOc1ccc(C(=O)N2CCC[C@H]2c2nc(-c3ccc(OC)c(OC)c3)no2)cc1 the results were NPR1 antag -21%.
COc1cccc(CC(=O)N2CCCn3nc(C)c(-c4ccccc4C(C)C)c32)c1 was read as NPR1 antag inconclusive.
CN(C)C(=O)c1n[nH]c2c1CN(C(=O)c1cccc(Br)c1)CC2 was read as NPR1 antag -6%.
For CCC1(N2CCN(S(=O)(=O)c3ccc4c(c3)CCCC4)CC2)CCN(C(=O)NC)C1 (stereo unspecified) the results were NPR1 antag -13%.
`COc1ccc(CN2C[C@H]3CN(C(=O)CC(C)(C)C)CCN3C2=O)cc1` gave NPR1 antag -3%[70.6 µM].
Screening O=C(c1cc2ccccc2[nH]1)N1CCNc2cnc(Nc3ccccc3)nc2C1 returned NPR1 antag inconclusive.
CCc1nc(-c2c3n(c(=O)n(Cc4cccc(OC)c4)c2=O)CCCC3)no1 was read as NPR1 antag -7%.
`Cc1cc(C)n(Cc2cc(C(=O)N3CCSCC3)n[nH]2)n1` gave NPR1 antag 1%.
For Cc1cc(C)c2[nH]c(C(=O)N3CCCC3c3nc4ccccc4[nH]3)c(C)c2c1 (stereo unspecified) the results were NPR1 antag -1%.
`COc1cccc(C(=O)N2CCN(c3cc(-c4ccc(Cl)cc4)[nH]n3)CC2)c1OC` gave NPR1 antag 11µM*.
`Cc1cccc(C(=O)N2C(C(=O)NCc3ccco3)COC23CCN(C(=O)CC(C)(C)C)CC3)c1` (stereo unspecified) gave NPR1 antag -11%.
`COc1ccc(C(=O)N2CCOCC3(CN(Cc4ccccc4)C3)C2)cc1` gave NPR1 antag 2%[70.6 µM].
`Cc1nc2c(c(-c3ccc(Cl)cc3)n1)CCN(C(=O)c1ccc(C(F)(F)F)cc1)CC2` gave NPR1 antag -2%.

Quoted from the entries so far (4 entries):
`COc1ccc(CN2C[C@H]3CN(C(=O)CC(C)(C)C)CCN3C2=O)cc1` gave NPR1 antag -3%[70.6 µM].
Screening O=C(c1cc2ccccc2[nH]1)N1CCNc2cnc(Nc3ccccc3)nc2C1 returned NPR1 antag inconclusive.
CCc1nc(-c2c3n(c(=O)n(Cc4cccc(OC)c4)c2=O)CCCC3)no1 was read as NPR1 antag -7%.
`Cc1cc(C)n(Cc2cc(C(=O)N3CCSCC3)n[nH]2)n1` gave NPR1 antag 1%.

(list continues)
COc1cc(CN2CCN(Cc3ccon3)CC2CCO)cc(OC)c1 (stereo unspecified) was read as NPR1 antag -1%.
For O=C(Cc1ccccc1Cl)NCc1nnc2c(-c3nc(C4CC4)no3)cccn12 the results were NPR1 antag 3%.
`CC(C)C[C@@H]1N[C@H](C(=O)N2CCOCC2)Cc2cn(CC3CC3)c3cccc1c23` gave NPR1 antag -14%[70.6 µM].
`Cc1cc(C)c(S(=O)(=O)N2CCn3c(nn(CC4CC4)c3=O)C2)c(C)c1` gave NPR1 antag -24%.
Screening CN(C(=O)[C@@H]1C[C@@H](c2ccc(F)cc2)N([S+](=O)([O-])c2ccccc2)C1)c1ccccc1 returned NPR1 antag -25%[70.6 µM].
For COc1ccccc1CC(=O)N1CCC(C2CCN(S(C)(=O)=O)CC2)C1 (stereo unspecified) the results were NPR1 antag -1%.
For COCCN1CCCC2(CCN(C(=O)CN3C(=O)CNC3=O)C2)C1=O (stereo unspecified) the results were NPR1 antag -7%.
For NCCn1cc(C(=O)N2CCC(Oc3ccncc3)CC2)nn1 the results were NPR1 antag -3%.
For CCN1c2cc(C(=O)NCCC3=CCCCC3)ccc2C(=O)N2CCCCC21 (stereo unspecified) the results were NPR1 antag -10%.
For COCCN1C(=O)CC[C@]2(C(=O)NCc3cccc(Cl)c3)CCCC[C@@H]12 the results were NPR1 antag -7%.

The list goes on; it opens with the five that closed the last part.
For COc1ccccc1CC(=O)N1CCC(C2CCN(S(C)(=O)=O)CC2)C1 (stereo unspecified) the results were NPR1 antag -1%.
For COCCN1CCCC2(CCN(C(=O)CN3C(=O)CNC3=O)C2)C1=O (stereo unspecified) the results were NPR1 antag -7%.
For NCCn1cc(C(=O)N2CCC(Oc3ccncc3)CC2)nn1 the results were NPR1 antag -3%.
For CCN1c2cc(C(=O)NCCC3=CCCCC3)ccc2C(=O)N2CCCCC21 (stereo unspecified) the results were NPR1 antag -10%.
For COCCN1C(=O)CC[C@]2(C(=O)NCc3cccc(Cl)c3)CCCC[C@@H]12 the results were NPR1 antag -7%.
For COc1ccc(CN2C(=O)O[C@@H]3CN(C4CCCCC4)C[C@@H]32)cc1OC the results were NPR1 antag 3%.
`Cc1nc2ccc(C(=O)NCc3cc4n(n3)CCN(C(=O)N(C)C)C4)cc2o1` gave NPR1 antag 0%.
COc1ccc(-c2noc(Nc3ccccc3)n2)cc1 was read as NPR1 antag 10µM*.
`CN(Cc1ccccc1)Cc1cn([C@H]2CO[C@H]3[C@@H]2OC[C@@H]3NC(=O)NC2CCCCC2)nn1` gave NPR1 antag -2%.
Screening CC1=C[C@@H](CNC(C)C)[C@H](C(C)C)C[C@H]1Cc1nnc(C(C)(C)C)o1 returned NPR1 antag -3%[70.6 µM].
Cc1ccc(-c2noc(-c3nc(-c4ccccn4)no3)n2)cc1 was read as NPR1 antag -4%.
For Cc1nccn1-c1ccccc1Cn1cc(-c2cncnc2)nn1 the results were NPR1 antag 1%.
COc1ccc(-c2ccnc(N[C@H]3CO[C@H]4[C@@H]3OC[C@@H]4NC(=O)Nc3ccc(C(C)=O)cc3)n2)cc1 was read as NPR1 antag -3%.
O=C(COc1ccc(Cl)cc1)N1CCC(Oc2ncccc2C(=O)N2CCCCC2)C1 (stereo unspecified) was read as NPR1 antag 4%.
For Cc1ccc(C)c(NC(=O)CN2C(=O)NC(c3ccccc3Cl)C3=C2COC3=O)c1 (stereo unspecified) the results were NPR1 antag 1%.
For Cn1ncc(N2CCC(NC(=O)c3ccc4c(c3)OCO4)CC2)cc1=O the results were NPR1 antag -4%.
C=CCN(Cc1ccc(C#N)cc1)Cc1cccnc1 was read as NPR1 antag -1%.
Screening COC[C@@H]1[C@@H](NC(=O)c2ccc3c(c2)ncn3C)[C@@H]2CCO[C@H]12 returned NPR1 antag -6%.
Screening CCCNC(=O)C(NC(=O)c1cccc(C)c1)C1CCN(C(=O)c2ccc(C)cc2)CC1 (stereo unspecified) returned NPR1 antag 1%.
`CN1C(=O)C(c2ccccc2)CC12CCN(Cc1ccc(C#N)cc1)CC2` (stereo unspecified) gave NPR1 antag -14%.
For CC(=O)NCCC(=O)N1CCCC(c2[nH]ncc2-c2ccc(C)cc2)C1 (stereo unspecified) the results were NPR1 antag 1%.
For COc1ccc(C(=O)NC2CCCN(c3cc(-c4ccc(F)cc4)[nH]n3)C2)cc1OC (stereo unspecified) the results were NPR1 antag -2%.
COc1ccc(C[C@H](NC(=O)[C@@H]2C[C@@H](NC(=O)Nc3cccc(F)c3)CCN2C(=O)[C@H](C)O)C(N)=O)cc1 was read as NPR1 antag 6%.
For Cc1ccc2c(C(=O)N3CCOCC3)cc(NC(=O)C3CCC3)cc2n1 the results were NPR1 antag -1%.
`Cc1nc(-c2ccccc2)n(Cc2cc(=O)n3ccccc3n2)c(=O)c1CCO` gave NPR1 antag -4%.
CC(C)c1nc(NC(=O)Cn2nc3c(cc2=O)CCCC3)n[nH]1 was read as NPR1 antag 0%.
Screening CNC(=O)[C@@H](C1CCCCC1)N1CCC[C@H]1C(=O)N1CCOCC1 returned NPR1 antag 0%[70.6 µM].
Cn1cc(C(=O)NC2CC(c3cc(N4CCOCC4)ncn3)C2)cn1 (stereo unspecified) was read as NPR1 antag 1%.
Screening Cc1onc(-c2ccccc2)c1C(=O)N1CCOCC(O)(CN2CCCC2)C1 (stereo unspecified) returned NPR1 antag 8%.
CC(=O)Nc1ccc(CN2CCn3c(nnc3-c3ccccc3)C2)cc1 was read as NPR1 antag 10%.
For O=c1[nH]c(C2CCCN(Cc3ccc(-c4cccs4)cc3)C2)nc2ccc(F)cc12 (stereo unspecified) the results were NPR1 antag 16µM*.
OC[C@@H]1CN(C2CCC2)C[C@H]1c1nc(-c2ccncc2)no1 was read as NPR1 antag 2%.
`Cc1cc(-c2cc3c(ccn3C(C)C)c(C(=O)NCc3c(C)cc(C)[nH]c3=O)n2)ccn1` gave NPR1 antag -8%[70.6 µM].
For COc1cccc(-c2cc3c(=O)n(CCNC(=O)c4ccc(C)cc4)ccn3n2)c1 the results were NPR1 antag -17%.
For O=C(C1CCCC1)N1CCn2c(nn(-c3ccc([N+](=O)[O-])cc3)c2=O)C1 the results were NPR1 antag -9%.
For CC(C)CCN1CCc2c(sc3ncnc(N4CCOCC4)c23)C1 the results were NPR1 antag -1%.

Screens from PubChem BioAssay.
